Assay outcomes as filed in PubChem.
Cruzain inh noDet = qHTS Assay for Promiscuous and Specific Inhibitors of Cruzain (without detergent) | hit rate 2.3% among 200,000 | Potency, µM, for the others: max response, negative = inhibition, actives largely listed as inhibitors | purified cruzain, Z-FR-AMC fluorescence, no detergent | Cruzipain (Trypanosoma cruzi), P25779;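 further: plate controls were enzyme without inhibitor for no effect and buffer without enzyme for full effect; nearly all actives have a fitted effect of over 40% in size; top concentration of the series not given in the record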
Target sequence (P25779 123-467 limits assumed): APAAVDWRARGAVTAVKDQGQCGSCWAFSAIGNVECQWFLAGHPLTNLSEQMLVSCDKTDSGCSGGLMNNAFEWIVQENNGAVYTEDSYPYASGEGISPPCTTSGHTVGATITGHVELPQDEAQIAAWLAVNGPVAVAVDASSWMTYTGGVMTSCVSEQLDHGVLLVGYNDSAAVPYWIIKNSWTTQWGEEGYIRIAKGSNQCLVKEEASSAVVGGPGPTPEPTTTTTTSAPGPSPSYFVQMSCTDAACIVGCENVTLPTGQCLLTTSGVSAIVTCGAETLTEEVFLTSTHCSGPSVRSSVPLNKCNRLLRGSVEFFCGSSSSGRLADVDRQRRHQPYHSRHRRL
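Purified cruzain at 1.5 nM, pre-incubated 15 min with compound at room temperature in 100 mM sodium acetate pH 5.5, 5 mM DTT, 0.00005% Triton X-100. Reaction started with 2 uM Z-FR-AMC; AMC fluorescence increase over 60 s gives rate.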
RE007 growth inh = qHTS Assay for Inhibitors of the HIV-1 protein Vpr | hit rate 0.21% among 360,000 | Potency, µM (doses to about 92.2 µM), inactives show top-dose activity change, negative = less growth | S. pombe RE007 Vpr strain, BacTiter-Glo ATP luminescence, 24 h; control for the full effect not named in the record; active = well fitted falling curve with a large enough effect; inconclusive = small, poorly fitted or top-dose-only effect; inactive = no such curve, though single readings can be large or run the other way;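 further: on the % scale 0 is the no-effect control and ±100 the full control effect; nearly all actives have a fitted effect of over 50% in size; the assay follows cell death caused by Vpr and the record does not say whether a fall means rescue or toxicity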
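Fission yeast strain RE007, carrying one chromosomally integrated HIV-1 vpr copy, was seeded at OD 0.01 in PMG+AL medium with 23 nL pinned compound. After 24 h at 30 °C and 99% humidity, viability was read by BacTiter-Glo luminescence.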
MARV entry inh = qHTS for inhibitors of binding or entry into cells for Marburg Virus | Marburg virus pseudotyped entry inhibition, cell reporter; control for the full effect not named in the record; about a third of the inactives were read at about 46 µM | Potency, µM (titrated, usually from 37.8 µM), inactives show at the highest dose activity change, negative = inhibition, hits mostly inhibitors | hit rate 1.8% among 300,000 | AID 540276, 2011; active = well fitted inhibition curve with a large enough effect; inconclusive = small, poorly fitted or top-dose-only effect, or effect the other way; inactive = flat fitted curve, though single readings scatter; tested in HEK293 cells; about a fifth of its hits are not listed in these tables; further: on the % scale 0 is the no-effect control and ±100 the full control effect; luciferase read-out
Cruzain Triton = qHTS Assay for Promiscuous and Specific Inhibitors of Cruzain (with detergent); Cruzipain (Trypanosoma cruzi), P25779; purified cruzain, Z-FR-AMC fluorescence, 0.01% Triton; Potency, µM, for inactives: max response, negative = inhibition, hits mostly inhibitors; hit rate 0.43% among 200,000;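 further: plate controls were neutral wells for no effect and buffer without enzyme for full effect; nearly all actives have a fitted effect of over 40% in size; top concentration of the series not given in the record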
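Read-out: AMC fluorescence (360 nm excitation, 450 nm emission), four reads over 2 min, first-to-third difference used. Conditions: cruzain 1.5 nM, Z-FR-AMC 2 uM, pH 5.5 acetate, 5 mM DTT, 0.01% Triton X-100.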
NS1 function inh = qHTS Assay for Inhibitors of Influenza NS1 Protein Function. AID 2326, 2010. hit rate 0.4% among 270,000. S. cerevisiae slowed by influenza A NS1, growth recovery by OD600. Potency, µM (series often up to 46.1 µM), inactives show at the top dose activity, positive = more growth; active means well fitted rising curve with a large enough effect; inconclusive means small, poorly fitted or top-dose-only effect; inactive means no such curve, though single readings can be large or run the other way; further: nearly all actives have a fitted effect of over 50% in size
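S. cerevisiae expressing influenza A NS1, grown in glucose, washed, then diluted 1:100 into pH 6.0 -URA galactose medium with 23 nl compound. Growth recovery read as OD600; NS1-free strain serves as control.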
LASV entry inh = qHTS for Inhibitors of binding or entry into cells for Lassa Virus; Lassa virus pseudotype entry inhibition, cell reporter; control for the full effect not named in the record; AID 540256, 2011; Potency, µM (highest dose often 37.9 µM), for inactives: at the top dose activity change, negative = inhibition, most hits filed as inhibitors; hit rate 1.2% among 300,000; active means well fitted inhibition curve with a large enough effect; inconclusive means small, poorly fitted or top-dose-only effect, or effect the other way; inactive means flat fitted curve, though single readings scatter; tested in HEK293 cells; further: on the % scale 0 is the no-effect control and ±100 the full control effect; nearly all actives have a fitted effect of over 50% in size; luciferase read-out
SARS PLP yeast = qHTS of Yeast-based Assay for SARS-CoV PLP. hit rate 0.19% among 330,000. Potency, µM (highest dose often 32.9 µM), for inactives: at the highest dose activity, positive = growth rescue. S. cerevisiae expressing SARS-CoV PLpro, growth rescue; control for the full effect not named in the record. AID 485353, 2010; active means well fitted rising curve with a large enough effect; inconclusive means small, poorly fitted or top-dose-only effect; inactive means no such curve, though single readings can be large or run the other way; further: 0% is about no effect; nearly all actives have a fitted effect of over 55% in size; growth read by luminescence after 48 h
StopGo reporter = High Throughput Screening for Foot and Mouth Disease Virus Antivirals | human cells with a luciferase reporter of 2A StopGo recoding; control for the full effect not named in the record | Potency, µM (titrated, usually from 57.9 µM), inactives show at the highest dose signal change, negative = less light | hit rate 1.2% among 410,000; active = well fitted falling curve with a large enough effect; inconclusive = small, poorly fitted or top-dose-only effect; inactive = no such curve, though single readings can be large or run the other way; tested in HEK293T cells; further: on the % scale 0 is the no-effect control and ±100 the full control effect; nearly all actives have a fitted effect of over 45% in size; luciferase light after 4 h
Active calls of the source: *; ? = inconclusive; . = no result given; & = joins results of further samples; [ ] = another dose, or the depositor's remark. Unless noted, the call rests on the fitted dose curve; in most records, active means well fitted curve in the direction sought with a large enough effect; inconclusive means small, poorly fitted or top-dose-only effect, or another doubt; inactive means no such curve, though single readings can be large; an effect the other way counts as inactive or inconclusive. Potency means the concentration at half of the fitted maximal effect.

SMILES | Cruzain inh noDet | RE007 growth inh | MARV entry inh | Cruzain Triton | NS1 function inh | LASV entry inh | SARS PLP yeast | StopGo reporter
C[C@]1(C(=O)NCCc2c[nH]c3ccccc23)C=C[C@@H](Cc2ccccc2)N1C(=O)c1ccccc1 | 4%&2% | 2% | -18% | -4.8%&-5.8% | 12% | ? | 0% | 16%
CC(Sc1nnc(N)s1)C(=O)Nc1ccc2c(c1)OCCO2 (stereo unspecified) | . | 13% | . | . | 12% | . | 5% | -2%
Cc1ccccc1C(O)(Cc1ccccc1)C1CN2CCC1CC2 (stereo unspecified) | 1% | 5% | ? | 4.8% | -2% | ? | -2% | -25%
COc1cccc(Oc2ccc(S(=O)(=O)N3CCOCC3)cc2[N+](=O)[O-])c1 | . | -5% | -24%[46.1 µM] | . | . | ? | -8% | -11%
O=C(CSc1ccc(C(F)(F)F)cn1)Nc1ccccc1 | . | 2% | 12% | . | -1% | 5% | 0% | -6%
COc1ccc2[nH]c(-c3ccc(C)cc3)cc(=O)c2c1 | 10% | 0% | ? | 1.2% | 0% | 4.1µM* | 9% | -34%
CC(=O)Nc1ccc(N2CCC(C)CC2)c([N+](=O)[O-])c1 | . | -1% | 7%[46.1 µM] | . | -5% | 1%[46.1 µM] | -2% | 13%
NNC(=S)Nc1ccc(Cl)cc1 | . | 4% | 3% | . | 8% | -9% | 3% | 2%
COCCNC(=O)/C(C#N)=C/c1c(N2CCN(c3ccccc3)CC2)nc2c(C)cccn2c1=O | . | -6% | ? | . | 1% | ? | -2% | -17%
Cc1ccnc(NS(=O)(=O)c2ccc(N)cc2)n1 | 2%&7%&-2% | -6% | . | -1.3%&8.7%&-2.7% | -1% | . | -2% | -2%&13%
CCc1cc(CNC(=O)C2CCC(=O)N(Cc3ccc(Cl)cc3)C2)on1 (stereo unspecified) | . | 0% | . | . | 2% | . | ? | 25%
COc1ccccc1-n1c(CNC(=O)c2ccco2)nnc1SCC(=O)Nc1nccs1 | 3% | -6% | . | 7.8% | -7% | . | -4% | -3%
N#CCCn1c(Cl)nc2ccccc21 | 1% | 3% | 28% | 4.5% | -5% | -18% | 3% | .
O=C(NC(Cc1ccccc1)C(=O)O)/C(=C/c1ccc(Cl)cc1)NC(=O)c1ccco1 (stereo unspecified) | . | -16% | -3%[46.1 µM] | . | 1% | 5%[46.1 µM] | -2% | -9%
O=C(CN1C(=O)S/C(=C\C=C\c2ccccc2)C1=O)N1CCOCC1 | . | 8% | 3%[46.1 µM] | . | 2% | 5% | 0% | 10%

Some of these compounds in order of length of the SMILES, falling.
SMILES | Cruzain inh noDet | RE007 growth inh | MARV entry inh | Cruzain Triton | NS1 function inh | LASV entry inh | SARS PLP yeast | StopGo reporter
COc1ccccc1-n1c(CNC(=O)c2ccco2)nnc1SCC(=O)Nc1nccs1 | 3% | -6% | . | 7.8% | -7% | . | -4% | -3%
CCc1cc(CNC(=O)C2CCC(=O)N(Cc3ccc(Cl)cc3)C2)on1 (stereo unspecified) | . | 0% | . | . | 2% | . | ? | 25%
COc1ccc2[nH]c(-c3ccc(C)cc3)cc(=O)c2c1 | 10% | 0% | ? | 1.2% | 0% | 4.1µM* | 9% | -34%

(further entries)
SMILES | Cruzain inh noDet | RE007 growth inh | MARV entry inh | Cruzain Triton | NS1 function inh | LASV entry inh | SARS PLP yeast | StopGo reporter
Cc1nc([N+](=O)[O-])c(NCCCO)n1Cc1ccccc1 | . | -14% | 6%[46.1 µM] | . | . | -1% | 2% | -12%
CC(C)C(NC(=O)C1CCC(C(C)(C)C)CC1)C(=O)NCCc1ccc(S(N)(=O)=O)cc1 (stereo unspecified) | . | 6% | . | . | 4% | . | 3% | -18%
COc1ccc(-c2cc(NCCc3ccncc3)n3ncnc3n2)cc1 | 3% | -5% | ? | -0.2% | -3% | 11% | -3% | 1%
CCCN1Cc2cccc(C(=O)NC(CC(=O)OCC)c3ccc(OCC)c(OC)c3)c2C1=O (stereo unspecified) | . | 11% | 9%[46.1 µM] | . | . | ? | 5% | 33%[activator]
COc1ccc(OCCSc2nnc(-c3ccoc3C)n2C)cc1 | 0% | 4% | 4% | 4.9% | -13% | -2% | -2% | ?
Cc1ccc(NC(=S)N(CCN2CCOCC2)Cc2ccccc2F)cc1Cl | . | -5% | 6% | . | . | ? | 1% | 19%
C=CCNS(=O)(=O)c1cc2c3c(c1)CCN3C(=O)CC2 | . | 1% | . | . | 14% | . | -3% | -9%
O=C(Cc1cc(=O)[nH]c(=O)[nH]1)N1CCN(CCO)CC1 | . | 18% | . | . | 4% | . | 9% | -15%
COc1ccc(CNc2nccs2)cc1OC | . | -11% | 3% | . | -3% | 1% | 3% | -11%
O=C(COc1ccc([N+](=O)[O-])cc1)Nc1ccc(CN2CCOCC2)cc1 | . | -2% | . | . | -8% | . | 0% | ?
COc1ccc(-n2nc(C(=O)NCC(=O)NCCCN3CC(C)CC(C)C3)c3ccccc3c2=O)cc1OC (stereo unspecified) | . | -5% | -2%[46.1 µM] | . | 14% | -3%[46.1 µM] | 1% | 1%
O=C(c1cccc(S(=O)(=O)N2CCN(c3ccc(F)cc3)CC2)c1)N1CCCC(C(F)(F)F)C1 (stereo unspecified) | . | 30% | 7.9µM* | . | . | ? | -4% | ?
CCCCn1c(N)c(N(CC(C)C)C(=O)CCNC(=O)c2ccc(Cl)cc2)c(=O)[nH]c1=O | . | -14% | -3% | . | . | 17% | -1% | -11%
C=CCNC(=O)COC(=O)c1ccc(Cl)c(S(N)(=O)=O)c1 | . | 0% | 11%[46.1 µM] | . | . | -5% | 0% | -15%
NS(=O)(=O)c1ccc(NS(=O)(=O)c2ccc(NC(=O)c3ccc(-c4ccccc4)cc3)cc2)cc1 | 13µM* | -7% | -9% | -25% | 25% | 11% | 3% | -22%
CCCC12CN(C(=O)c3ccc(OC)cc3)CC(C)(CN(C(=O)c3ccc(OC)cc3)C1)C2=O | 0% | 24% | -3%&-3% | -1.3% | -10% | -11% | 2% | -22%
Cc1ccc2cc3c(NS(=O)(=O)c4cccc5nonc45)nn(CC(C)C)c3nc2c1 | . | 6% | 6%[46.1 µM] | . | 4% | 12%[46.1 µM] | 0% | 20%
CC(C(=O)OCC(=O)Nc1ccc(S(=O)(=O)N2CCCCC2)cc1)N1C(=O)c2ccccc2C1=O (stereo unspecified) | ? | 15% | ? | 1.1% | 21% | 0% | 0% | -4%
COc1cc2c(cc1OC)C(C(=O)NCc1ccco1)C(c1cccs1)N(C)C2=O (stereo unspecified) | -1% | -1% | -2% | 1.7% | -11% | -5% | 5% | -22%
COc1ccc(Nc2ncc3c(n2)CC(c2ccc(C)cc2)CC3=O)cc1 (stereo unspecified) | -26% | 0% | ? | -1.9% | 4% | 0.23µM* | 2% | 7%
Cc1ccc(/C=N/Nc2ccc(C(=O)O)cc2)o1 | . | 0% | -16% | . | . | -3% | 2% | -2%
CCOC(=O)C(N)CSC1CC(=O)N(c2ccc(OC)cc2)C1=O (stereo unspecified) | . | -6% | . | . | -1% | . | 23% | -10%
COc1ccccc1N1CCN(C(c2ccccc2)c2nnc(-c3ccccc3Cl)o2)CC1 (stereo unspecified) | ? | . | . | -4.2% | . | -3%[46.1 µM] | . | 0%
Fc1ccccc1Cc1ccc(Cl)nn1 | . | -11% | -15%[46.1 µM] | . | 5% | ? | 1% | 5%
C=CCOc1nc2c(c(=O)n(C)c(=O)n2C)n1Cc1ccc(Cl)cc1Cl | ? | -19% | -19%&-19% | 6.4% | -15% | 0% | 1% | -12%
CC1(C)Cc2ccccc2-c2[nH]c(=S)[nH]c(=O)c21 | . | 13% | 14%[46.1 µM] | . | 11% | -9%[46.1 µM] | -6% | -11%
CCc1ccc(-c2cc(C)no2)cc1S(=O)(=O)Nc1ccccn1 | . | -1% | -14%[46.1 µM] | . | -9% | 18%[46.1 µM] | -12% | 69%[activator]
COc1ccc(C2NC(=O)c3ccccc3N2)cc1OC (stereo unspecified) | 0% | 4% | -11% | 1.1% | -1% | 12% | -7% | 8%
COc1ccc(CCNC(=O)c2c(O)nc3cc(C)ccn3c2=O)cc1OC | -5% | . | 17%[46.1 µM] | -0.6% | . | . | . | -8%
COC(=O)c1ccc(CC(=O)c2nc3ccccc3s2)cc1 | 32µM* | -4% | 6% | -2.0% | 5% | -7% | 2% | 49%[activator]
CC(C)CCN1CC(C(=O)NCCC2=CCCCC2)CC1=O (stereo unspecified) | -3% | -16% | -5% | 1.8% | -6% | 0% | -4% | .
Cc1ccc(C2CC(=O)NC(SCCC(C)C)=C2C#N)cc1 (stereo unspecified) | -17% | 6% | . | 2.6% | 1% | . | -7% | ?
Cc1cc(NC(=O)Nc2cc(F)ccc2C)n(C)n1 | . | -18% | -5% | . | 5% | 13% | 1% | 41%[activator]
CCOC(=O)N1CCN(c2nc(-c3ccc(F)cc3)cs2)CC1 | 6% | ? | ? | -4.5% | -12% | ? | -8% | 10%
COc1ccc(CNC(=O)c2ccncc2)cc1 | . | 11% | . | . | -1% | . | 1% | 0%
CCN(CC)C(=O)Cn1nnc(-c2ccc(C)o2)n1 | 11% | 16% | -27% | 5.7% | 4% | ? | -11% | -21%
O=C(Nc1ccccc1N1CCOCC1)c1ccc([N+](=O)[O-])cc1 | -5% | -14% | 9% | 4.5% | 7% | -15% | -6% | -3%
COc1ccc(S(=O)(=O)Nc2cc3c4c(c2)CCN4C(=O)CC3)cc1OC | . | 10% | -23% | . | . | 3%[46.1 µM] | 4% | 71%[activator]

Not a hit list, and some 4.7% of all compounds hit somewhere here.
